Screening data deposited in PubChem BioAssay by ICCB-Longwood Screening Facility, Harvard Medical School.
GIV-Gai inh: blocks GIV peptide binding to rat Galpha-i3; P08753; Galpha-i3/FITC-GIV peptide fluorescence polarization, 90 min; hits give low values; scaled: aluminum fluoride 0%, vehicle 100%; percent of control (FP), % (no concentration beside the values); actives 0.42% (n = 210,000); AID 1224905;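 active means replicate mean at 85% of control or lower, very high polarization wells dropped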;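 further: wells of about 15 µL received 100 nL stock; the first replicate is given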
Target sequence (P08753 whole entry, looked up): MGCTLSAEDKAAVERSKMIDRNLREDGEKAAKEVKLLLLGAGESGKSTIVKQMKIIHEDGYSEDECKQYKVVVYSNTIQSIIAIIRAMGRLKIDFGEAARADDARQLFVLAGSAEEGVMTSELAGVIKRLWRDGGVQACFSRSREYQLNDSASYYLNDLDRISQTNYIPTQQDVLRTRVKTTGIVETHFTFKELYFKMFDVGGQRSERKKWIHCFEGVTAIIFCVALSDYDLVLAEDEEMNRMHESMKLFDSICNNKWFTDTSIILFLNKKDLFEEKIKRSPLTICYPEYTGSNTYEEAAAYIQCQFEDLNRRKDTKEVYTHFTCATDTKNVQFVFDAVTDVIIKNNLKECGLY
* hit, by the source's call. Only part of the results is shown, so the mix of outcomes need not match the whole.

SMILES	GIV-Gai inh
COc1ccc(CCNC(=O)CCC(=O)Nc2nc(-c3cc4ccccc4oc3=O)cs2)cc1OC	110
Cc1ccnc(NS(=O)(=O)c2ccc(N3C(=O)C4CCCCC4C3=O)cc2)n1 (centres undefined)	104
CCC(Sc1nnc2c3ccccc3nc(-c3ccccc3)n12)C(=O)NC(C)C (centres undefined)	99
Cc1nc(-c2csc(S(=O)(=O)N3CCCC(C(=O)N4CCCC4)C3)c2)no1 (centres undefined)	105
CC1CN(S(C)(=O)=O)c2ccccc2O1 (centres undefined)	101
O=C(c1ccc2c(=O)n(C3CCCCC3)c(SCc3cccc([N+](=O)[O-])c3)nc2c1)N1CCOCC1	108
Cc1ccc(C2(c3ccc(C)cc3)CC2C(=O)Nc2ccc(Cl)c(Cl)c2)cc1 (centres undefined)	107
Cc1nc(-c2cc(NC(=O)Cc3ccc(Cl)cc3)c(C)s2)no1	102
C=COC(=O)CSc1nc(-c2ccccc2)cc(C(F)(F)F)c1C#N	110
COc1ccc(OCC(CN(C)C2=NS(=O)(=O)c3ccccc32)OC(=O)c2ccc(C)cc2)cc1 (centres undefined)	107
COc1ccc(C2=NN3C(C2)c2cc(Cl)ccc2OC3c2ccc(F)c(F)c2)cc1 (centres undefined)	102
Cc1nc(CNC(=O)[C@H]2CCCN2S(=O)(=O)c2ccc(Cl)s2)cs1	96
Cc1cccc(C)c1NC(=O)C1(N(C)C(=O)c2ccc(Cl)cc2)CCC(C(C)(C)C)CC1 (centres undefined)	103
O=C(Nc1cccc(C(=O)N2CCCC(C(=O)NCC3CCCCC3)C2)c1)c1ccccc1F (centres undefined)	108
COc1ccc(C(=O)[C@@H]2[C@@H](c3cccnc3)C(C#N)(C#N)[C@H]3C=Cc4ccccc4N23)cc1	142
O=C(CSc1nnc(CNC(=O)c2ccc(S(=O)(=O)N3CCCC3)cc2)n1-c1ccc(F)cc1)Nc1nccs1	103
Cc1ccc(COc2ccccc2C2CC(=O)Nc3c2cnn3-c2ccc3nnc(C)n3n2)cc1 (centres undefined)	99
N#CC1=C(SCc2ccccc2Br)NC(=O)C(C#N)C12CCCCC2 (centres undefined)	101
COc1ccc(OC)c(-c2[nH]ncc2CN2CCCC2c2cc(C)on2)c1 (centres undefined)	107
c1cc(-c2nnc(C3CC3)o2)ccn1	102
O=C(CCN1CCOCC1)Nc1cc(C(=O)NCc2cccc(Cl)c2)ccc1N1CC2CC(C1)c1cccc(=O)n1C2 (centres undefined)	110
Cc1ccc(C2(C)CC(C)(C)N(C(=O)CSC#N)c3ccc(C)cc32)cc1 (centres undefined)	108
COc1ccc(N2CCN(c3nccc4ccc(C(=O)N5CCOCC5)cc34)CC2)cc1	108
CC(=O)Nc1ccc(S(=O)(=O)Nc2ccc(S(=O)(=O)Nc3nc(C)cc(C)n3)cc2)cc1	110
O=C(Nc1ccc(F)cc1)N1CCC(n2cnc3cc(F)ccc3c2=O)CC1	107
Continuation.
SMILES	GIV-Gai inh
COc1cc(NC(=O)N2CCCC2c2cc(C(C)C)no2)cc(OC)c1 (centres undefined)	111
O=C(NC1CCCCC1)c1csc(C(=O)NC2CC2)n1	105
CCCCCCCCCC(=O)OC1CCC2(C)C3CCC4(C)C(C(C)CCCC(C)C)CCC4C3CC(Br)C2(Br)C1 (centres undefined)	105
CCC(=O)N1c2ccccc2NC2=C(C(=O)CC(c3cccs3)C2)C1c1ccc(C(=O)OC)cc1 (centres undefined)	103
O=c1c2oc3ccccc3c2nc2n1Cc1ccccc1-2	103
CCOc1ccc(-n2nnnc2CNC(=O)Nc2ccccc2Cl)cc1	99
CC1(C(=O)NCc2cccc(F)c2)CCCN(S(=O)(=O)c2ccc(F)cc2F)C1 (centres undefined)	104
Cn1c(=O)c2nc(S(=O)(=O)CCC(=O)N3CCCCC3)n(C)c2n(C)c1=O	99
CC(=O)c1c(C)oc2ccc(N(C(C)=O)S(=O)(=O)c3cccc([N+](=O)[O-])c3)cc12	122
COc1ccc(N2C(=O)CSC2c2cc3c(cc2[N+](=O)[O-])OCO3)c(OC)c1 (centres undefined)	109
O=C1NC(=O)/C(=C/c2ccc(-c3ccc([N+](=O)[O-])cc3Br)o2)S1	63*
COc1ccc(/C(O)=C2\C(=N)N(c3cccc(Br)c3)C3=C(C(=O)CCC3)C2c2ccc3c(c2)OCO3)cc1 (centres undefined)	116
CCn1c(CCc2cccc(NS(=O)(=O)c3ccc(F)cc3F)c2)nc2ccccc21	103
CC(=O)N1CCC(Oc2nccnc2N(C)C)C1 (centres undefined)	99
CN(C)c1nc(Nc2ccc3c(c2)OCO3)c2cnn(-c3ccccc3)c2n1	100
Cc1sc(C)c(S(=O)(=O)NCc2ccccc2Cl)c1-c1cc(C(F)(F)F)on1	98
CC1=C(C)CS(=O)N(S(=O)(=O)c2cccc([N+](=O)[O-])c2)C1 (centres undefined)	115
COc1cccc(-n2c(SCC(=O)NCCc3ccc(OC)c(OC)c3)nc3n[nH]c(C)c3c2=N)c1	106
CCc1ccc(C2(O)CC(C(F)(F)F)=NN2C(=O)c2ccc([N+](=O)[O-])cc2)cc1 (centres undefined)	106
CN(C)c1cccc(C(=O)N2CCN(c3cc(=O)n(C)c(=O)n3C)CC2)c1	103
CCOc1ccc(-c2csc(Cc3nc(-c4cccc(F)c4)no3)n2)cc1	103
Cc1ccc(CNC(=O)C2CCN(c3cnc(N4CCSCC4)nc3)CC2)o1	111
CC(C(=O)NC1CC1)C1CCN(S(=O)(=O)c2ccc(Br)s2)CC1 (centres undefined)	103
Cc1ccc(-c2cncc(C(=O)NC3CCCc4ccccc43)c2)cc1 (centres undefined)	106
CCOC(=O)c1ccc(Cn2c3ccccc3c3nc4cc(F)ccc4nc32)o1	110
Next part:
SMILES	GIV-Gai inh
COc1ccc(CC(Cc2nc3ccccc3[nH]2)c2nc3ccccc3[nH]2)cc1 (centres undefined)	106
O=C1OC(c2ccc(Br)cc2)(c2ccc(Br)cc2)c2ccccc21	110
COC(=O)c1ccc(-n2nnnc2SCc2nc(N)nc(N3CCOCC3)n2)cc1	108
CCOC(=O)CSc1nc2cc(C(=O)NCc3ccccc3)ccc2c(=O)n1CCc1ccccc1	110
Cc1sc(C)c(S(=O)(=O)Nc2ccc3c(c2)OCCO3)c1-c1cc(C(F)(F)F)on1	104
CCCc1nnc2sc(NC(=O)CCC3CCCC3)nn12	103
Cc1ccc(NC(=O)CSc2nn3c(SCC(=O)Nc4ccc(C)cc4)nnc3s2)cc1	104
O=C(NCc1cc(F)cc(F)c1)c1sc2ncccc2c1-n1cccc1	103
Cc1nn(-c2ccc(F)cc2)c2sc(C(=O)Nc3ccccc3F)cc12	107
Cc1ccc(S(=O)(=O)CCc2noc(C3CCCO3)n2)cc1 (centres undefined)	102
COc1ccc(-c2cc(C(F)(F)F)n3nc(C(=O)N4CCC(C)CC4)cc3n2)cc1OC	114
N=Cc1c2ccc[nH]c-2c2ccccc12	107
Cn1nnc2c(N3CCC(O)CC3)ncnc21	106
CCOc1cc(CN2CCCC2c2c(C)noc2CC)ccc1O (centres undefined)	106
COc1ccccc1N1CCN(c2ncnc3c2cnn3-c2cccc(C)c2)CC1	108
COc1ccc(C2NCCc3c2[nH]c2ccccc32)cc1COc1ccccc1F (centres undefined)	99
Cc1cc([N+](=O)[O-])c(C)c2c1NS(=O)(=O)c1ccccc1-2	115
O=C(Cn1c(N2CCCCC2)nc2ccsc2c1=O)NCC1CC1	98
Cn1cnc2c1c(=O)n(Cc1ccc(F)cc1)c(=O)n2C	99
CCOc1ccc(-n2c(SCC(=O)Nc3ccccc3OCC)nc3n[nH]c(C)c3c2=N)cc1	99
CCOC(=O)C1CCN(C(=O)c2sc3nc(C)nc(N4CCCCC4)c3c2C)CC1	105
CCSc1nccc2c1ccn2CC(=O)NCc1ccc(C)c(C)c1	103
O=C(NCc1ccco1)c1ccc2c(c1)nc(SCc1cc(=O)n3cc(Cl)ccc3n1)n1c3ccccc3nc21	113
c1ccc(CN2CCCC(Nc3ncnc4c3CCC4)C2)nc1 (centres undefined)	97
Cn1c(=O)c2nc(SCCC(=O)Nc3cc(Cl)ccc3F)n(C)c2n(C)c1=O	97
Next part
SMILES	GIV-Gai inh
O=C(O)c1c2c(nc3ccccc13)-c1ccccc1C2	104
CC(=O)CSc1nc2scc(-c3ccccc3)c2c(=O)n1-c1ccccc1	96
COc1ccc(NC(=O)c2c(NC(=O)c3ccccc3F)sc3c2CCCCC3)cc1	108
CC1(C(=O)O)NC(c2ccccc2O)C2C(=O)N(c3ccccc3[N+](=O)[O-])C(=O)C21 (centres undefined)	104
Cc1cccc(-c2noc(CCn3nc(-c4ccc5c(c4)OCO5)ccc3=O)n2)c1	104
Cc1nc(-c2ccc(C)c(-n3cc(C(=O)Nc4ccc(Cl)cc4C)c(C)n3)c2)no1	102
O=C(c1ccc2c(c1)OCCO2)N1CCN(c2nc3ccc(F)cc3s2)CC1	97
CC(C)CCn1c(SCc2cc(=O)n3ccccc3n2)nc2c(-c3ccccc3)cn(C)c2c1=O	106
COC(=O)c1cc(Nc2cc(Cl)c(OC)cc2OC)c2cc(F)ccc2n1	105
CCN1/C(=C2\SC(=S)N(Cc3ccccc3)C2=O)Sc2ccccc21	105
O=S(=O)(c1cn(Cc2noc(C3(c4ccccc4)CC3)n2)cn1)N1CCCCC1	105
Cc1cccc(-c2cnc(Nc3cccc(C(=O)Nc4ccc5c(c4)OCCO5)c3)nc2)c1	106
COC(OC)C12c3ccccc3C(c3ccccc31)C1C(=O)N(c3cccc(Cl)c3)C(=O)C12 (centres undefined)	112
Cc1ccc(-c2[nH]ncc2CN2CCCC2c2cc(C(C)C)no2)cc1 (centres undefined)	104
CCOc1ccc(NC(=O)C2=C(C)NC(=O)NC2c2ccccc2)cc1 (centres undefined)	104
O=S(=O)(c1cc(-c2noc(C3CC3)n2)cs1)N1CCc2ccccc21	94
CN1CCN(c2c([N+](=O)[O-])c(=O)n(-c3ccccc3)c3ccccc23)CC1	109
COc1ccc(S(=O)(=O)N2CCC(c3noc(-c4ccc(F)cc4)n3)CC2)cc1	100
Cc1ccc(C2(c3ccc(C)cc3)CC2C(=O)Nc2ccccc2)cc1 (centres undefined)	113
CCCOc1cccc(C2CC(=O)Nc3c2c(C)nn3-c2ccc3nncn3n2)c1 (centres undefined)	95
COc1ccc(NS(=O)(=O)c2cc(-c3nc(C)c(C(=O)N4CCCC4)s3)n(C)c2)cc1OC	95
COc1ccc(NC(=O)c2sc(N3CCCC3=O)nc2C)c(OC)c1	98
CCc1nnc(NC(=O)CSc2nc3c(cc2C#N)CCCC3)s1	106
O=C1CC(c2ccccc2)N(C(=O)CCCl)c2ccccc2N1 (centres undefined)	105
CC1CCc2oc3ccc(NS(=O)(=O)c4ccc(Cl)cc4)cc3c2C1 (centres undefined)	108
Remaining list, next part:
SMILES	GIV-Gai inh
COc1ccc(S(=O)(=O)n2nnc3ccccc32)c2ccccc12	108
O=P1(C(Nc2ccc(Cl)cc2)c2ccc(O)cc2)OCCCO1 (centres undefined)	117
CCCC(Cl)C(=O)OC1CCC2(C)C(=CCC3C2CCC2(C)C(C(C)CCCC(C)C)CCC32)C1 (centres undefined)	108
Fc1ccc(CSc2nc(NCc3ccco3)c3ccccc3n2)cc1	108
COc1ccc(OCC(=O)N2CCN(C(=O)c3cc4cc(OC)ccc4[nH]3)CC2)cc1	109
O=C(c1cccc(Br)c1)N1N=C(C(F)(F)F)CC1(O)C(F)(F)F (centres undefined)	106
O=C(NC1CCCCC1)c1ccc(-c2nccc(Oc3ccccc3)n2)cc1	102
Cc1cccc(NC(=O)NCc2nnnn2-c2ccc(C)c(C)c2)c1	100
c1ccc(-c2cn(-c3ccccc3)c3ncnc(NCc4ccc5c(c4)OCO5)c23)cc1	111
O=C(c1ccc(F)cc1)N1CCN(c2ccc([N+](=O)[O-])c(N3CCCCC3)c2)CC1	108
COc1ccc(C2=NN(C(=O)CSc3nnc(CNC(=O)c4ccco4)n3C)C(c3ccc(OC)cc3)C2)cc1 (centres undefined)	104
CC1=CC(C)C2(COC(=O)NC3CCCCC3)COC(c3ccc4c(c3)OCO4)C1C2C (centres undefined)	115
CCOc1cc(-c2nc3sc4c(c3c(=O)[nH]2)CCCC4)ccc1OCCOc1cccc(C)c1	108
C=CCn1c(=O)c2sc(N(CC)CC)nc2n(CC(=O)NCc2ccc3c(c2)OCO3)c1=O	95
